Screens as filed in PubChem BioAssay.
miR-21 FLuc: raises the signal of a miR-21 reporter | Potency, µM (doses to about 38.3 µM), without a hit: top-dose reporter change, positive = more light | 340,000 tested, under 10 active | HeLa miR-21 FLuc reporter, luciferase, 48 h; active = well fitted rising curve with a large enough effect; inconclusive = small, poorly fitted or top-dose-only effect; inactive = no such curve, though single readings can be large or run the other way;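 further: % of control where 0% means no effect; miR-21 action dims this reporter so a rising signal means less miR-21 action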
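Compounds were titrated across several concentrations (up to approximately 40 uM) and incubated 48 hours with HeLa miR-21-FLuc reporter cells (miR-21 target sequence downstream of FLuc, endogenous miR-21). Readout was firefly luciferase luminescence after lytic detection reagent.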
Rango dissoc inh: prevents RanGTP from dissociating the Rango-importin beta complex. Potency, µM (top dose mostly 46.1 µM), without a hit: at the top dose activity change, negative = inhibition. O95149+P62826. 340,000 compounds, 0.071% hits. Biochemical FRET Rango-importin beta, RanGTP-induced dissociation. AID 540253; active means falling FRET ratio curve, often poorly fitted, with flat reads before Ran was added; inconclusive means other falling curves, or compound fluorescence or quenching; inactive means flat or rising ratio curve;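 further: potency means the concentration at half of the fitted maximal effect; % of control where 0% means no effect; nearly all actives have a fitted effect of over 45% in size; -100% = wells without RanGTP and RCC1; the record marks most hits as doubtful in a second field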
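Compounds sat 5 min at room temperature with 0.1 uM Rango biosensor plus 0.25 uM importin beta, then FRET pre-read. RanGTP-RCC1 (0.6 uM Ran, 2mM GTP, 0.2 uM RCC1) added for 45 min, and the CFP/YFP post-read measured blocked complex dissociation.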
GLA inh pH 4.5: alpha-galactosidase A (human) inhibition, pH 4.5. P06280. AID 1467. 230,000 tested, under 10 active. activity change, negative = inhibition, % at 105 µM. purified enzyme, 4-MU-alpha-Gal fluorescence, pH 4.5; inconclusive = small, poorly fitted or top-dose-only inhibition, or a rising curve; inactive = flat fitted curve, though single readings scatter; no compound was filed as active;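 further: 0% = full activity with enzyme and -100% = basal without enzyme; dose as in the result columns while the protocol names 77 µM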
Rango complex inh: Rango-importin beta binding inhibition; Q14974; Rango CFP/YFP FRET sensor + importin beta, 45 min; Potency, µM (highest dose often 92.2 µM), without a hit: at the top dose inhibition of complex formation; 340,000 compounds, 0.031% hits; AID 540263; active = rising FRET ratio curve, often small or poorly fitted; inconclusive = mostly compound fluorescence or quenching in the first reads; inactive = flat curves in all reads;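 further: potency means the concentration at half of the fitted maximal effect; 0% = DMSO wells and 100% = buffer wells lacking importin beta; nearly all actives have a fitted effect of over 15% in size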
Target sequence (Q14974 whole entry, looked up): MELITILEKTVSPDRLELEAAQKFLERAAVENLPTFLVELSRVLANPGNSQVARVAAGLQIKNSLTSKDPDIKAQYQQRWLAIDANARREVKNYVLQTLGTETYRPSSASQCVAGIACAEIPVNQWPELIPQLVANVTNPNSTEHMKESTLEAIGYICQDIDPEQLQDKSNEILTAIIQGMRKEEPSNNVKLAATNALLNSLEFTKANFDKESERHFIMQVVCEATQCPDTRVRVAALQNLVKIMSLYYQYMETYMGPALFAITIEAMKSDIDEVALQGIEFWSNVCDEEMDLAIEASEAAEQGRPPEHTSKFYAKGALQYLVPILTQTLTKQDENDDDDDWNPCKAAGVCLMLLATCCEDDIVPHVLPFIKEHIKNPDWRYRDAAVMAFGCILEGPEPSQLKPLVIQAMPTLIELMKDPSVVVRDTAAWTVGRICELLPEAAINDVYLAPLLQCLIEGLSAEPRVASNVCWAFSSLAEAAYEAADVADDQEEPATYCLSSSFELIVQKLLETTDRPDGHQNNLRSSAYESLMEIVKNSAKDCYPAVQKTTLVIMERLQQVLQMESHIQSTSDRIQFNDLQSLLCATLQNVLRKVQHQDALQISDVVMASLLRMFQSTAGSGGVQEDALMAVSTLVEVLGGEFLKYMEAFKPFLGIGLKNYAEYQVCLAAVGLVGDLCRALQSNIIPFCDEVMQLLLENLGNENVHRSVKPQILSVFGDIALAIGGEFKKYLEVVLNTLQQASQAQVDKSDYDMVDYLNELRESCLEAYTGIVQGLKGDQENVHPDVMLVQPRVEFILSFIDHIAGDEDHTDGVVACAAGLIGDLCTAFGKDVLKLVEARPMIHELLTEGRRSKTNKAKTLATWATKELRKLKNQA
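FRET biosensor (snurportin 1 IBB flanked by EYFP and cerulean), 50 nM, with compound 5 min, then 0.125 microM importin beta in PBS, 1 mM DTT, 0.02% Tween-20, 0.1% BSA. CFP/YFP ratio read after 45 min at room temperature; pre-read flags interference.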
The depositor's hits bear a star; u = inconclusive; x = not tested or not shown; [ ] = dose if it differs, or a comment.

SMILES	miR-21 FLuc	Rango dissoc inh	GLA inh pH 4.5	Rango complex inh
CCOC(=O)Cn1cc(C(=O)OC)c2ccccc21	-17%	-7%	4	-0.1%
Cc1ccc2oc(=O)n(CCCOc3ccccc3)c2c1	-55%	-4%	1	0.0%
COc1ccc(C(CNC(=O)c2cc(S(=O)(=O)N3CCCCC3)ccc2C)N2CCCC2)cc1 (stereo not given)	x	1%	x	1.2%
Cc1ccc(NC(=S)NCc2ccc3c(c2)OCO3)cc1C	-16%	-7%	-1	-4.1%
CC(C)C[C@@H](CN1CCC[C@@H]1CN1C(=O)C(=O)NC[C@@H]1Cc1ccccc1)N1C[C@H](Cc2ccccc2)N(CC2CCCCCC2)C(=O)C1=O	x	17%	x	-4.8%
NC(=O)c1ncn([C@@H]2O[C@H](CNCc3cc(Br)ccc3OCc3ccccc3)[C@@H](O)[C@H]2O)n1	x	-7%	x	-1.4%
CCOC(=O)c1nn(-c2ccc(C)cc2)c(=O)cc1OCC(=O)Nc1cccc(OC)c1	x	-4%	x	-1.1%
Cc1ccc(N(CC(=O)N2CCN(c3ccc(F)cc3)CC2)S(=O)(=O)c2c(C)nn(C)c2C)cc1	-3%	11%	-5	3.8%
COc1ccc(N(CC(=O)Nc2cccc(SC)c2)S(C)(=O)=O)cc1Cl	-7%	-7%	-13	-1.4%
C=CCn1c(CC(=O)OC)csc1=Nc1ccc(C(C)=O)cc1	-55%	-22%	-6	-8.4%
NCC(=O)NCC(=O)OCc1ccccc1	1%	-3%	1	0.2%
COc1cccc(/C=N/Nc2nnc(C)n2N)c1OCc1ccccc1Cl	6%	22%	1	-2.8%
CC1CCCCN1CCNC(=O)c1ccc2c(=O)n(Cc3ccc(Cl)cc3)c(=S)[nH]c2c1 (stereo not given)	24%	20%	x	-0.1%
COC(=O)c1sc(S(=O)(=O)NC(Cc2ccccc2)C(=O)O)c(C(=O)OC)c1C (stereo not given)	x	8%	x	4.8%
COc1ccc(-n2c(C)cc(-c3cn4cccc(C)c4n3)c2C)cc1	-6%	-24%	-5	u
C#CCSc1nccc(-c2nn(-c3ccc(C)cc3)ccc2=O)n1	18%	11%	5	-0.9%
CSc1nc(C)c2c(n1)N(c1cccc(C)c1)CC2	-13%	2%	2	2.0%
Cc1ccc(NC(=O)Cn2nc(C(F)(F)F)c3c2CCC3)cc1	0%	-5%	3	-1.2%
CC(=O)Nc1ccc(-c2csc(NC(=O)CCNC(=O)c3ccco3)n2)cc1	x	-11%	x	3.3%
COCCCN1C(=O)C(=O)/C(=C(/O)c2ccc(OC(C)C)cc2)C1c1cccnc1 (stereo not given)	-3%	-3%	-4	5.7%
COc1ccccc1CN(C)C(=O)C(NC(=O)Cc1cccc2ccccc12)C(C)C (stereo not given)	5%	-6%	x	-3.4%
CCCCNC(=O)C1CC(c2c(Cl)cccc2Cl)=NO1 (stereo not given)	u	-1%	3	-3.3%
C=CCOc1ccc(Cl)cc1C(=O)O	-4%	1%	2	-1.1%
Cn1c(CNc2cccc(C(F)(F)F)c2)n[nH]c1=S	-2%	3%	-9	0.1%
O=[N+]([O-])c1ccc(Cl)cc1N1CCCCC1	-1%	13%	4	6.4%
CCOC(=O)N1CCC(NC(=O)c2cc3c(=O)[nH]c4ccccc4c3n2C)CC1	-1%	0%	-13	-3.5%
C/C=C/C1=CC(=O)C[C@H](c2ccc(OC)c(OC)c2)C1	x	-19%	x	4.0%
O=C(O)CC1(c2ccc(F)cc2)C2CC3CC(C2)CC1C3 (stereo not given)	0%	-7%	x	1.3%
O=C(CCCN1C(=O)C(c2ccccc2)Oc2cccnc21)Nc1cccc(F)c1 (stereo not given)	11%	25%	x	2.4%
COc1ccc(C(C)=O)cc1COc1cccnc1[N+](=O)[O-]	20%	2%	x	2.3%
CC(C)(C)c1ccc(Cn2c(=O)cnc3ccccc32)cc1	19%	28%	x	6.0%
C=CCN1C(=O)C2(OCCCO2)c2ccccc21	-6%	17%	x	4.2%
O=C(Nc1cccc(C(=O)N2CCCC2)c1)c1ccccc1Cl	5%	0%	1	0.6%
CCC(C)N(C)C1CCN(C(=S)Nc2cccc(OC)c2)CC1 (stereo not given)	-5%	11%	-7[21.1 µM]	-0.2%
CC1(C2CC2)NC(=O)N(CC(=O)Nc2ccccc2C#N)C1=O (stereo not given)	x	-2%	x	-1.8%
COCc1cc(N2CCN(c3ccccc3F)CC2)nc(-c2ccccc2)n1	-6%	-3%	-6	0.5%
O=C(COc1ccc2c3c(c(=O)oc2c1)CCCC3)NCCCN1CCOCC1	6%	-23%	x	-9.6%
COc1ccccc1/C=N/NC(=O)CSc1ccc2ccccc2n1	-14%	29%	x	1.3%
CC(=O)OC1COC(n2ccc3cc([N+](=O)[O-])ccc32)C(OC(C)=O)C1OC(C)=O (stereo not given)	-1%	0%	-1	0.3%
O=C(NNC(=O)c1cc(-c2ccccc2)nn1-c1ccccc1)c1ccccc1	-9%	-1%	2	-4.2%

A few values from above.
For GLA inh pH 4.5, `CCOC(=O)N1CCC(NC(=O)c2cc3c(=O)[nH]c4ccccc4c3n2C)CC1` is entered as -13
For Rango dissoc inh, `C#CCSc1nccc(-c2nn(-c3ccc(C)cc3)ccc2=O)n1` is entered as 11%
For Rango dissoc inh, `CCC(C)N(C)C1CCN(C(=S)Nc2cccc(OC)c2)CC1` (stereo not given) is entered as 11%

The list continues:
SMILES	miR-21 FLuc	Rango dissoc inh	GLA inh pH 4.5	Rango complex inh
CSc1nc2nc3c(cn2n1)C(=O)CC(c1ccccc1)C3 (stereo not given)	-5%	u	3	u
Cc1cn2c(nc1=O)OC1C(O)C(COC(=O)c3ccccc3)OC12 (stereo not given)	1%	-10%	-4	-2.2%
O=C(CC1CCCC1)Nc1cc(S(=O)(=O)N2CCOCC2)ccc1O	x	-1%	x	1.4%
COc1ccc(/C=C(/NC(=O)c2ccccc2)C(=O)N2CCCC2)cc1OC	-7%	-21%	x	-2.5%
Cc1nc([N+](=O)[O-])c(Sc2nc3ccc([N+](=O)[O-])cc3[nH]2)n1Cc1ccccc1	15%	-2%	-6	-1.8%
CC1(N=Cc2cc(Cl)ccc2O)COP(=O)(NC2CCCC2)OC1 (stereo not given)	x	u	x	u
COC(=O)c1ccc(CSc2nc3c(c(=O)n2-c2ccc(F)cc2)SCC3)o1	-19%	-10%	2	2.0%
Cc1cc(C)cc(NC(=O)C(OC(=O)c2ccc(O)cc2)c2ccccc2)c1 (stereo not given)	x	26%	x	-3.2%
NS(=O)(=O)c1ccc(CCNC(=O)Cc2c[nH]c3ccccc23)cc1	-5%	-5%	-8	0.2%
CC1c2cc3c(cc2CCN1C(=O)c1ccc(C(F)(F)F)cc1)OCCCO3 (stereo not given)	12%	-2%	x	-0.1%
COCCCN1C(=O)N(c2ccccc2)C(=O)C1CC(=O)Nc1ccccc1 (stereo not given)	0%	-4%	x	-2.3%
COC(C(=O)N/N=C(\C)c1ccc(C)cc1)c1ccccc1 (stereo not given)	-20%	0%	x	1.6%
COc1ccc(/C=C/C(=O)Oc2cccc(/C=N/NC(=O)Cc3ccc(Br)cc3)c2)cc1	-8%	-5%	-3	4.6%
Cc1cccc(/N=C/c2c(O)ccc3oc4c(c23)CCCC4)n1	22%	-13%	-11	-1.9%
Cc1cc(Br)ccc1OCC(=O)NNC(=O)c1ccc(NC(=O)C2CC2)cc1	-3%	-2%	4	-4.3%
COc1ccc2nc(N/C(N)=N/S(C)(=O)=O)nc(C)c2c1	-12%	10%	20	3.0%
Cc1cccc(-n2cnc3cc([N+](=O)[O-])ccc32)c1	-31%	4%	-8	2.5%
NC(=O)c1ccccc1NS(=O)(=O)c1cccs1	-6%	8%	-12	-0.1%
COc1cccc(CNc2nc3nc(C)c(Cl)c(=O)n3[nH]2)c1	1%	-6%	-3	3.4%
CCOc1ccc2nc(NC(=O)Nc3ccccc3)sc2c1	-44%	4%	-1	-0.3%

Three compounds drawn at random from those above, as already listed:
SMILES	miR-21 FLuc	Rango dissoc inh	GLA inh pH 4.5	Rango complex inh
COCCCN1C(=O)N(c2ccccc2)C(=O)C1CC(=O)Nc1ccccc1 (stereo not given)	0%	-4%	x	-2.3%
COc1ccc(/C=C/C(=O)Oc2cccc(/C=N/NC(=O)Cc3ccc(Br)cc3)c2)cc1	-8%	-5%	-3	4.6%
COC(C(=O)N/N=C(\C)c1ccc(C)cc1)c1ccccc1 (stereo not given)	-20%	0%	x	1.6%

The list continues.
SMILES	miR-21 FLuc	Rango dissoc inh	GLA inh pH 4.5	Rango complex inh
CCOc1ccc(C(=O)N2CCCC2C(=O)O)cc1 (stereo not given)	2%	u	x	-6.8%
CC(NC(=O)COc1ccc(N(C)S(=O)(=O)c2ccccc2)cc1)c1ccccc1 (stereo not given)	0%	17%	-2	-1.7%
COc1ccc(N2CCN(CC(=O)NC(=O)NC(C)(C)C)CC2)cc1	1%	-7%	-19	3.1%
Cc1csc(NC(=O)c2ccc(-c3ccc(Cl)cc3Cl)o2)n1	-11%	13%	8	1.1%
CCCCNC(=O)c1ccc2c(c1)N(CC)C(=O)CS2	1%	-2%	0	-4.0%
N#Cc1c(N)n(-c2cccc(O)c2)c2nc3ccccc3nc12	-12%	u	3	u
CC(NC(=O)c1ccco1)c1ccc2c(c1)OCO2 (stereo not given)	-6%	-5%	x	-0.7%
CC(CC1C(C#N)=C(N)OC2=C1C(=O)CCC2)c1ccccc1 (stereo not given)	-4%	0%	-8	0.9%
Cc1cc(C(=O)NN=C2C3CC4CC(C3)CC2C4)c2ccccc2n1	17%	0%	7	-0.6%
COc1ccc(/C=C/C(=O)Nc2nc(C)c(C(=O)N(C)C)s2)cc1	-23%	5%	-4	2.7%
CCCOc1ccc(/C=C/C(=O)O)cc1OC	-4%	-11%	1	-0.5%
Cc1ccc(S(=O)(=O)NCc2c(-c3ccccc3)noc2C)cc1	0%	-15%	-1	-2.6%
COCCCN1Cc2cccc(C(=O)O)c2C1=O	4%	1%	-12	1.3%
CCN(CC)CCNc1nc(-c2ccccc2)nnc1C(F)(F)F	-3%	10%	-6	0.3%
Cc1ccc2c(c1)nnn2C1CCN(S(C)(=O)=O)CC1	-9%	-5%	14	-0.6%
C=CCn1c(O)c(/C=C2\C=NN=C2c2ccccc2)sc1=S	-5%	25%	u	-0.6%
Cc1ccc(NC(=O)COC(=O)C2=COCCO2)c([N+](=O)[O-])c1	-20%	3%	9	0.5%
O=C(NCCc1ccccc1)c1c(F)cccc1F	-30%	-3%	7	2.0%
CC1CCCN(C(=O)CSc2nnc(-c3ccc(O)cc3)o2)C1 (stereo not given)	-14%	17%	x	4.3%
CCCCOc1ccc(/C=C(\C(=O)O)c2ccc(S(=O)(=O)N3CCCC3)s2)cc1	x	0%	x	0.0%
CC(C)CCOC(=O)C[N+](C)(C)CCOC1CC2CCC1(C)C2(C)C (stereo not given)	26%	16%	-3	-1.8%
CCN(CC)S(=O)(=O)c1cccc(-c2nnc(SCc3nc4ccccc4s3)o2)c1	-34%	-14%	5	u
CNC(=O)c1ccsc1NC(=O)CCS(=O)(=O)c1ccc(F)cc1	x	3%	x	-3.9%
Cc1cc(/C=N/Nc2ccc([N+](=O)[O-])cn2)c(C)n1-c1cccc(C(=O)O)c1	-29%	0%	-2	6.4%
COc1cccc(CN(C)S(=O)(=O)c2cccs2)c1	-13%	-13%	x	-2.3%

Part of the list above, as comma-separated lines:
SMILES,miR-21 FLuc,Rango dissoc inh,GLA inh pH 4.5,Rango complex inh
COC(C(=O)N/N=C(\C)c1ccc(C)cc1)c1ccccc1 (stereo not given),-20%,0%,x,1.6%
COc1ccc(/C=C(/NC(=O)c2ccccc2)C(=O)N2CCCC2)cc1OC,-7%,-21%,x,-2.5%
O=C(NCCc1ccccc1)c1c(F)cccc1F,-30%,-3%,7,2.0%

Some of the compounds tested (hit frequency here may not be typical).
